# Bioassay records deposited in PubChem by several laboratories.
# B2AR ag – beta2AR agonists driving receptor internalization, primary screen, cell-based, FAP fluorogen, flow cytometry; Am2.2-beta2AR cells; reference of the scale not given here; actives 0.43% (n = 340,000); Beta-2 adrenergic receptor (Homo sapiens), P07550; response, % (test concentration not listed);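 active = response above a set limit, near 3 SD of response in nonfluorescent compounds, cut at about 42% in these data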;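 also: stock transfer was 100 nL into about 11 µL; a reference agonist was the positive control; negative values mostly stem from fluorescent compounds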
# RanGTP-Impb inh – inhibitors of RanGTP-importin-beta interaction, primary screen, biochemical, FRET, CFP-Ran, YFP-importin-beta, homogeneous; inhibition, % (concentration not given with the values); Ran GTPase (GTP-bound) - importin-beta complex; actives 1.1% (n = 300,000); AID 2216, 2009; cell-free CFP-Ran/YFP-importin-beta FRET ratio;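 active = most replicates above 15%; inconclusive = exactly half above 15%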;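 also: 0% = DMSO wells and 100% = Ran loaded with GDP instead of GTP; wells of about 40 µL received 100 nL stock; the first replicate is given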
# Calb FLC – C. albicans growth inhibition with fluconazole, primary screen, CaCi-2 strain, Alamar Blue fluorescence; C. albicans CaCi-2 (fluconazole-resistant clinical isolate) + fluconazole, 48 h; growth inhibition, % (concentration not given with the values); actives 0.57% (n = 300,000); AID 1979, 2009;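 active = most replicates above 75%; inconclusive = exactly half above 75%; inactive = most below 75%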;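 also: all wells also contain fluconazole at 8 µg/ml as a sub-toxic cotreatment; 0% = median of DMSO wells and 100% = median of geldanamycin control wells; wells of about 8 µL received 7.5 nL stock; the first replicate is given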
# LANA-H2A inh – blockers of LANA interaction with H2A/H2B – biochemical, FP readout, HTS, primary screen; Protein LANA1 (Human herpesvirus 8 type P (isolate GK18)), Q9QR71; cell-free LANA-H2A/H2B peptide, fluorescence polarization; inhibition, % (no concentration beside the values); actives 0.6% (n = 320,000); in the data active = inhibition mostly above about 10%, no sharp cut-off; inactive = mostly below about 6.7%;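 also: stock transfer was 7.5 nL into about 10 µL; 0% = median of vehicle wells and 100% = median of positive control wells; one replicate is shown; the record names a cut of 25% in any replicate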
# Target sequence (Q9QR71 whole entry, looked up): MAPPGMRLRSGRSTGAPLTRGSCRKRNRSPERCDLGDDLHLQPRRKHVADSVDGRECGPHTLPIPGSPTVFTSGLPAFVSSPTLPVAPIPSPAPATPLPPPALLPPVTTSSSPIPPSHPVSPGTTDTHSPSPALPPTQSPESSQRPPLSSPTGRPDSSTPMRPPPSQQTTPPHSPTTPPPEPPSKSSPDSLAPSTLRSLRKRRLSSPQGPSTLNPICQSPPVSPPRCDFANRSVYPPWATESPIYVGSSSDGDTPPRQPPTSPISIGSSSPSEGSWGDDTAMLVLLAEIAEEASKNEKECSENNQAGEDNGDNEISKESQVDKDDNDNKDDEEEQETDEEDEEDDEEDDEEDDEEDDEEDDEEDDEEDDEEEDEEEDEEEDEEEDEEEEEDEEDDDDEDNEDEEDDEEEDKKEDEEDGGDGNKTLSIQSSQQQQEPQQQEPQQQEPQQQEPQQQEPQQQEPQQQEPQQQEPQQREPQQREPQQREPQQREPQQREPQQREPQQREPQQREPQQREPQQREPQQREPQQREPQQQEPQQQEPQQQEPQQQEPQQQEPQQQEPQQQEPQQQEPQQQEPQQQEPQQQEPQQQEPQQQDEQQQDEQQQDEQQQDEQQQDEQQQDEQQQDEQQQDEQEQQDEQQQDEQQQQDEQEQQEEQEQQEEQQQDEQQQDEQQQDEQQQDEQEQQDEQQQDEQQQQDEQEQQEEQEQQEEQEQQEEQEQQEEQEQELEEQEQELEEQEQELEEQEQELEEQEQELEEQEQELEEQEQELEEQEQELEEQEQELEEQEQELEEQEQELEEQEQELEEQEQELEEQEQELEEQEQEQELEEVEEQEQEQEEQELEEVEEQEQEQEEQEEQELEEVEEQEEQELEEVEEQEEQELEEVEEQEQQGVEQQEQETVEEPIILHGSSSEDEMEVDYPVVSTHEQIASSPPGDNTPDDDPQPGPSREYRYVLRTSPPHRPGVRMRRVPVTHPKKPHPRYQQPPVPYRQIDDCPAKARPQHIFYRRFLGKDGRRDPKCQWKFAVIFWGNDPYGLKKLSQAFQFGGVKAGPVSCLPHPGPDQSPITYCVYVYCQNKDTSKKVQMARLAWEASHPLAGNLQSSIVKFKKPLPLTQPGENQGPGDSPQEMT
# HNF4A DNA FP – change in binding of human HNF4A to DNA, primary screen, biochemical, fluorescence polarization, FITC-DNA | Hepatocyte nuclear factor 4-alpha (Homo sapiens), P41235 | 1 h | activity change, % at 10 µM | actives 0.3% (n = 360,000) | AID 1224865, 2016; in the data active = activity change above about 30%, passing the limit was not always enough;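 also: controls were the assay level and a saturating level of protein; the project sought stronger binding though the title names inhibitors; some compounds called inactive have numbers as strong as hits; positive values seem to mean higher polarization but the record does not say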
# ALR inh – inhibitors of human ALR sulfhydryl oxidase, primary screen, biochemical, H2O2 detection, HRP-luminol luminescence, single point; AID 485317, 2010; inhibition, % (test concentration not listed); purified ALR, DTT oxidation; actives 3.8% (n = 290,000);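 active = mean and each replicate at 75% or more; inconclusive = only one of the two met; inactive = neither met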;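 also: stock transfer was 7.5 nL into about 7.5 µL; 0% = neutral wells and 100% = wells with inactivated enzyme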
# Vif TR-FRET – inhibitors of Vif binding to APOBEC3G peptide, primary screen, biochemical, TR-FRET, GST-Vif 1-94, biotin-A3G peptide, dose response retest (AID 1117319); one-dose inhibition, %; IC50 in µM for titrated hits; TR-FRET GST-Vif / biotin-A3G peptide binding; higher % means a stronger effect; test concentration not given here; strong numbers were not always called active; Virion infectivity factor (Human immunodeficiency virus type 1 group M subtype B (isolate …; actives 0.57% (n = 260,000);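 active = above the screen mean plus three standard deviations and confirmed in dose response; inconclusive = results disagree or hit not tested in dose response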;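 also: Vif residues 1-94 fused to GST binding biotinylated APOBEC3G peptide 110-148; 0% = full assay without inhibitor and 100% = GST in place of GST-Vif; retest series ran down from 100 µM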
# * = called active by the depositor; ? = inconclusive; nt = no result given.
SMILES,B2AR ag,RanGTP-Impb inh,Calb FLC,LANA-H2A inh,HNF4A DNA FP,ALR inh,Vif TR-FRET
O=C(CCSc1ccccc1)N1CCN(c2ccccc2F)CC1,-2,4.4,60,-3.3,0.4,-13,-12%
Cc1cc(C)n(Cc2ccc(Cl)cc2Cl)c(=O)c1S(=O)(=O)c1ccccc1,10,?,0,0.0,0.5,-32,-2%
Cc1ccc(-c2cn3c(=S)[nH]nc3s2)cc1,7,-0.4,-5,-7.5,-1.1,86*,-3%
O=C(Nc1ccccc1)C1=C[C@H](c2ccc3c(c2)OCO3)C[C@H](OCCCCO)O1,-1,3.6,10,-2.9,4.0,-9,nt
CNC(=O)c1cc2ccccc2o1,2,8.1,14,-3.0,-2.4,-2,18%
CCOc1cc(C2C(C(=O)N3CCCCC3)=C(C)NC3=C2C(=O)CCC3)cc(Br)c1O (stereo not given),-6,4.4,23,0.0,-0.6,-3,?
COc1ccc(OCC(=O)NNC(=O)c2ccc3c(=O)n4c(nc3c2)CCC4)cc1,-2,-0.5,19,0.7,-0.7,-4,7%
COc1cccc(C(=O)COC(=O)CCC(=O)c2ccccc2)c1,-1,2.4,-2,3.0,-0.6,-3,nt
CCNC(=S)N1CCN(CCN=CC2=C(O)CC(C)(C)CC2=O)CC1,-8,3.6,0,3.3,1.9,nt,4%
Cc1ccccc1/C=C1\OC(=O)c2ccccc21,-3,9.5,36,-0.9,-5.0,0,-6%
O=C(c1ccc(CNS(=O)(=O)c2ccc(Br)cc2)cc1)N1CCCCCC1,-1,2.8,2,2.1,-0.6,4,nt
CCC1(C(=O)O)NC(c2cccc(OC)c2O)C2C(=O)N(c3ccccc3)C(=O)C21 (stereo not given),-1,-1.8,1,-1.5,-2.8,-3,0%
Cc1nnc(SCc2nc3sc4c(c3c(=O)[nH]2)CCCC4)n(N)c1=O,nt,-4.6,4,nt,nt,nt,?
Cc1cc(NC(=O)COn2nnc3ccccc32)no1,-3,0.2,-11,-0.7,3.1,nt,-2%
CC1CCCCN1C(=O)CN1CCN(S(=O)(=O)c2ccc(Br)cc2Cl)CC1 (stereo not given),-3,nt,nt,-1.7,5.0,-5,-4%
CCOC(=O)c1c(NC(=O)CSc2nc3ccccc3[nH]2)sc2c1CC(C)(C)NC2(C)C,22,4.7,-5,-0.2,2.7,-21,-7%
COC(=O)/C=C(\C)NC(=O)c1ccccc1Cl,-9,?,2,-0.2,-2.7,-1,-2%
O=C(CCNC(=O)c1ccc(Br)cc1)Nc1nccs1,3,0.9,112*,2.0,1.6,7,10%
Cc1ccc(C)c(S(=O)(=O)N/N=C2/CCCc3ccccc32)c1,5,8.0,-1,4.3,-2.5,-5,?
Cc1ccc(CNC(=O)CCNS(=O)(=O)c2ccc(C)cc2)cc1,9,-1.2,3,5.9,-0.7,4,-8%
CC(C)c1ccc(/C=C/C(=O)Nc2nc3ccc([N+](=O)[O-])cc3s2)cc1,7,-1.0,29,-10,1.0,28,3%
NC(=O)CC(NC(=O)c1ccccc1)c1ccc(NCc2ccccc2)c([N+](=O)[O-])c1 (stereo not given),-3,-4.5,-6,4.7,-1.9,-4,0%
NC(=O)C1(C(N)=O)OC1c1ccc(Cl)cc1Cl (stereo not given),4,4.2,3,-1.5,11,-17,-1%
Cc1ccc(C(=O)NC2CCCCNC2=O)cc1 (stereo not given),0,7.2,0,0.8,-0.2,-3,-6%
CC(C)CCNC(=S)Nc1ccccc1F,-3,-1.5,-4,1.0,1.3,-16,nt
Cc1cccc([C@@H]2[C@@H]3C(=O)N(Cc4ccccc4)C(=O)[C@@H]3[C@]3(CC(C)C)C(=O)N(c4cccc(Br)c4)C(=O)N23)c1,-5,4.1,25,2.2,3.1,nt,nt
CCCC1C(=O)Nc2ccccc2N1C(=O)c1ccc(C(C)(C)C)cc1 (stereo not given),0,1.2,-20,2.5,0.1,-4,nt
COc1cccc(NC(=O)C(NCCC(C)C)c2ccccc2)c1 (stereo not given),-6,5.9,-6,-4.8,0.2,1,0%
CCCS(=O)(=O)N1CCc2ccc(NC(=O)C3CCCO3)cc2C1 (stereo not given),-15,6.8,-1,4.9,2.2,-2,nt
Cc1ccc(OCC(=O)NNC(=O)CCC(=O)Nc2ccc(C)cc2C)cc1,20,0.4,7,-6.8,-0.4,-6,9%
O=C(O)CCCNC(=O)Cc1ccccc1,14,-0.3,-8,7.1,3.0,-2,13%
CCOC(=O)CN(Cc1ccccc1)S(=O)(=O)c1ccc(NC(C)=O)cc1,-7,1.6,?,-0.1,-1.7,1,-2%
CC(C)C[C@H](NC(=O)c1cc2cc(Cl)ccc2n1C)C(=O)N1CCC(C(=O)O)CC1,3,-4.1,6,0.1,-1.4,-1,7%
CC1=NNC(=O)C1CC(=O)N/N=C/C=C/c1ccccc1 (stereo not given),-1,-1.6,0,0.2,0.0,14,6%
N#Cc1nc(-c2ccc(OCc3ccccc3)cc2)oc1NCc1ccco1,3,-0.5,-3,0.4,0.6,-4,30%
O=C(Nc1ccc(-c2csc(Nc3ccc(Cl)cc3)n2)cc1)c1cc([N+](=O)[O-])cc(C(F)(F)F)c1,7,3.0,-3,2.0,-8.1,2,nt
S=c1[nH]nc(COc2ccccc2)n1/N=C/c1ccc(Cl)cc1Cl,-3,-1.0,-3,1.4,0.3,6,-12%
CC1CCCCC1NC(=O)COc1cccnc1[N+](=O)[O-] (stereo not given),-9,nt,nt,-22,-1.6,nt,-6%
COc1ccc(N=C2CCS(=O)(=O)c3sccc32)cc1,3,-1.0,-24,-0.3,0.7,nt,-1%
Cc1occc1C(=O)N1CCN(C(=O)C2CCCO2)CC1 (stereo not given),-5,0.8,-8,0.2,1.9,-2,23%

# Gathered by group: the entries above containing fluorine
SMILES,B2AR ag,RanGTP-Impb inh,Calb FLC,LANA-H2A inh,HNF4A DNA FP,ALR inh,Vif TR-FRET
O=C(CCSc1ccccc1)N1CCN(c2ccccc2F)CC1,-2,4.4,60,-3.3,0.4,-13,-12%
CC(C)CCNC(=S)Nc1ccccc1F,-3,-1.5,-4,1.0,1.3,-16,nt
O=C(Nc1ccc(-c2csc(Nc3ccc(Cl)cc3)n2)cc1)c1cc([N+](=O)[O-])cc(C(F)(F)F)c1,7,3.0,-3,2.0,-8.1,2,nt

# The results go on:
SMILES,B2AR ag,RanGTP-Impb inh,Calb FLC,LANA-H2A inh,HNF4A DNA FP,ALR inh,Vif TR-FRET
COc1cccc(N2CCN(S(=O)(=O)c3cc4c(cc3Cl)NC(=O)CO4)CC2)c1,19,-4.8,-3,-2.2,3.9,-5,nt
O=C(O)c1cccc(S(=O)(=O)N2CCN(S(=O)(=O)c3ccc4ccccc4c3)CC2)c1,4,nt,nt,nt,-0.8,nt,7%
CCOC(=O)c1ccc(NC(=O)COc2ccccc2CNCCO)cc1,-5,6.8,-28,3.6,2.5,-2,-10%
C[C@]12c3[nH]c4ccc(Cl)cc4c3CCN1C(=O)[C@@H](CC(=O)NCCc1ccccn1)C[C@@H]2C(=O)N1CCCCC1,-9,nt,nt,nt,1.6,nt,-3%
CCn1c(=O)n(CC)c2cc(N)ccc21,1,4.3,34,-0.7,1.8,98*,19%
O=C(COC(=O)c1n[nH]c2ccccc12)c1cccc(Br)c1,2,2.7,23,-1.0,-0.2,-7,-5%
Oc1ccc(/C=N/Nc2nc(N3CCCC3)nc(N3CCCC3)n2)cc1O,-15,-3.9,?,8.4,3.5,99*,nt
Cc1cccc(C)c1OCC(=O)Nc1c(C)nn(C)c1C,11,2.5,-5,5.5,0.3,1,nt
O=C(Nc1ccc(N2CCCC2)cc1)C(Cl)c1ccccc1 (stereo not given),76*,1.6,4,28*,-1.6,98*,23%
O=C(NC1=NCCS1)c1cc(-c2ccc(-c3ccccc3)cc2)nc2ccccc12,-7,-9.1,1,0.7,3.1,-10,-110%
CCC(=O)Nc1cccc(C2=NOC3(C2)C[C@@H](C(N)=O)N(C(=O)COc2ccc(Cl)cc2)C3)c1 (stereo not given in full),-1,1.2,8,-4.1,2.4,-1,2%
CN(C)CCSc1nc2cc(S(=O)(=O)N3CCCCC3)ccc2o1,13,nt,nt,1.7,-0.5,nt,nt
COCCNC(=O)C(c1ccco1)N(C(=O)Cn1nnc2ccccc21)c1ccc(C)cc1C (stereo not given),3,0.6,6,6.7,0.7,-4,11%
Cc1ccc(S(=O)(=O)NC(=O)NC(C)(C)C)cc1,-4,-0.9,7,-7.8,-1.5,nt,10%
O=C(c1ccc(Cl)c(S(=O)(=O)N2CCOCC2)c1)N(Cc1nnc(-c2ccccc2Cl)o1)C1CC1,-1,-6.6,1,1.4,2.0,2,nt
COC(=O)c1ccccc1NC(=O)Nc1cc(C)cc(C)n1,-2,-1.2,16,-0.6,1.3,-5,2%
CCC(C)N(C(=O)COC(=O)c1cc([N+](=O)[O-])ccc1N1CCOCC1)C1CCS(=O)(=O)C1 (stereo not given),-3,3.9,1,1.0,0.5,-15,-6%
COc1cc(C(c2c(C)[nH][nH]c2=O)c2c(C)[nH][nH]c2=O)cc(Cl)c1O,-6,-3.7,-31,3.4,3.3,0,nt
O=C(CCCCCn1c(=O)[nH]c2ccccc2c1=O)N1CCN(Cc2ccc3c(c2)OCO3)CC1,-13,-3.4,2,0.1,0.4,5,-4%
CCc1cccc2c(C(=O)COC(=O)c3ccc([N+](=O)[O-])s3)c[nH]c12,6,3.8,9,-2.6,-1.8,-43,11%
CO/N=C/c1c(-c2ccccc2)nn(C)c1Cl,9,0.8,-17,0.8,0.1,-16,-10%
CCCC(=O)Nc1ccc2c(c1)nc1n2CCN(CCOC)C1,0,6.0,3,1.9,3.2,-9,0%
CC(C)CN(C(=O)COc1ccc(C(C)(C)C)cc1)C1CCS(=O)(=O)C1 (stereo not given),4,-0.5,1,-1.6,0.9,2,0%
CC(CCc1ccc(O)cc1)NCc1ccc(Cl)cc1Cl (stereo not given),-2,-0.2,-12,-4.6,-0.6,72,9%
Cc1ccc(-n2nc3c(=O)n(CCCC(=O)NCc4ccccc4Cl)nc(C)c3c2C)cc1,-3,0.0,20,-4.2,0.2,-2,nt
Cc1ccc(NC(=O)CN(C)CC(=O)Nc2ccccc2C#N)cc1,-4,0.3,2,-7.6,-0.2,nt,-12%
CCc1c(C)nc2c(C)cccc2c1SCCC#N,10,-2.0,-38,0.2,-0.4,-1,-8%
COc1cccc2c1NC(C(=O)O)C1CC=CC21 (stereo not given),7,4.5,-5,6.5,-66,81*,<0.4µM*
NC(=O)C1CCN(c2oc(-c3ccccc3F)nc2S(=O)(=O)c2ccc(Cl)cc2)CC1,1,7.4,-1,-1.7,1.4,3,2%
CCOC(=O)Cn1c(=O)c2c(nc(N3CCCCC3)n2C)n(C)c1=O,-1,0.1,-5,5.8,-0.1,1,17%
O=C(CCc1ccccc1)NC(=S)Nc1cc(C(F)(F)F)ccc1N1CCOCC1,11,-1.2,10,4.7,-5.0,-1,-3%
O=C(Cc1cccc(C(F)(F)F)c1)OCC(=O)N1CCN(S(=O)(=O)c2ccc(Cl)cc2)CC1,10,4.7,-5,-2.0,1.0,-3,-5%
CCOC(=O)CC1(C)NC(=O)c2c(C)sc(C(=O)OCC)c2N1 (stereo not given),-1,8.7,-2,-0.6,3.8,-16,2%
Nn1c(SCC(=O)Nc2ccccc2C(F)(F)F)nncc1=O,-4,1.2,-3,4.7,-4.1,-32,2%
N#Cc1c(NC(=O)CSc2nc(N)cc(=O)[nH]2)sc2c1CCCCCC2,1,?,9,1.1,-3.5,4,3%
